# Compound activity deposited in PubChem by National Center for Advancing Translational Sciences (NCATS).
# D2 potentiator: Beta-Arrestin HTS for Positive Allosteric Modulators of the Human D2 Dopamine Receptor: Potentiators; hit rate 0.23% among 360,000; DiscoveRx D2 beta-arrestin cells, luminescence, 90 min; 100% = 57 uM dopamine signal; potentiation, % (no concentration beside the values); AID 624464, 2012; active = potentiation of 50% or more; inconclusive = 30% to 50%; inactive = 30% or less;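 also: compound concentration not given in the record; tested on top of an EC20 dose of dopamine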
#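 PathHunter D2 cells, attached overnight at 37 deg C, received compound in DMSO plus dopamine at EC20 (50 nM final) for 90 min at 37 deg C. Beta-arrestin recruitment was read as luminescence after 1 h with detection reagent at ambient temperature.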
# gsp antag: qHTS for Antagonists of gsp, the Etiologic Mutation Responsible for Fibrous Dysplasia/McCune-Albright Syndrome: qHTS. gsp-mutant cells, cAMP HTRF, 30 min; control for the full effect not named in the record. Potency, µM (doses to about 76.9 µM), for the others: top-dose activity change, negative = inhibition, usual class: inhibitors. hit rate 0.4% among 340,000. AID 624288, 2012; active = falling curve of any shape with a large fitted effect; inconclusive = falling curve, mostly with a smaller effect; inactive = flat or rising curve; cell line not stated here;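 also: intracellular cAMP measured with PDE inhibitor Ro 20-1724 present during compound exposure; potency is read from the fitted curve at half-maximal effect; % is scaled to controls: 0 for no effect and ±100 for the full control effect; nearly all actives have a fitted effect of over 65% in size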
#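 Cells, 2000/well, grown 16–24 h in DMEM 10% FBS with 0.5 mg/ml G418, then compounds plus […] (300 uM addition stock), 30 min at 37C. cAMP read by HTRF (cAMP-d2 and anti-cAMP antibody-K in lysis buffer) after 30 min RT.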
# Six1-Eya2 inh: qHTS Assay for Inhibitors of the Six1/Eya2 Interaction; AlphaScreen GST-Six1/His-Eya2 binding, biochemical; hits give low values; control for the full effect not named in the record; Homeobox protein SIX1 (Homo sapiens) + Protein phosphatase EYA2 (Homo sapiens), …; activity change, % (concentration not given with the values); hit rate 0.56% among 360,000; in the data active = activity change below about -65%; inconclusive = about -30% to -65%; inactive = above about -30%; also: % is scaled to controls: 0 for no effect and ±100 for the full control effect
# Target sequence (O00167 whole entry, looked up): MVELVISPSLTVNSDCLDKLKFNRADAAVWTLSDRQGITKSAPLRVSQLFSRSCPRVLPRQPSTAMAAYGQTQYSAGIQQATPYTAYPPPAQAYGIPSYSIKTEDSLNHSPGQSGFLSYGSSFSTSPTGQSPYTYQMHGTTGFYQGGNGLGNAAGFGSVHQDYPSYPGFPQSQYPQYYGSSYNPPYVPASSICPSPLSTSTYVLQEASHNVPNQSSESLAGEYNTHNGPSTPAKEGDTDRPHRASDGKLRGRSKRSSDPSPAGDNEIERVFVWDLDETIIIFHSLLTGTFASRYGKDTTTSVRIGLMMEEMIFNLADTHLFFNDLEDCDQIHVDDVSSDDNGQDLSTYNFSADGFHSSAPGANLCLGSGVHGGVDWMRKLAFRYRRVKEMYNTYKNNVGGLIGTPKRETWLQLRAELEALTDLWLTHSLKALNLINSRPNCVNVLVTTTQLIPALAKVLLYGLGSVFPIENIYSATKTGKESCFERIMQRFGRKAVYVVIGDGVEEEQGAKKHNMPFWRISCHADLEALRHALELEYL
# Target sequence (Q15475 whole entry, looked up): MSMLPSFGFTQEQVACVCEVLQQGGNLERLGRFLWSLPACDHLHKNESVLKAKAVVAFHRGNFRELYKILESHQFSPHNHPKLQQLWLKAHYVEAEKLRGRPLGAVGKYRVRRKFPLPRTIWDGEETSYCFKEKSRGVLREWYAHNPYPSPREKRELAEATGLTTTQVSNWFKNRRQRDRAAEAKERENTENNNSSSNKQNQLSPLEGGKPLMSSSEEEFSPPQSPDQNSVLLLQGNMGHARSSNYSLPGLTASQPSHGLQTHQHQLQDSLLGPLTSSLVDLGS
#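 Compounds are tested against tagged Six1 and Eya2 proteins bridged by glutathione donor and nickel acceptor beads; after a one-hour incubation at 37 °C without light, AlphaScreen emission is recorded.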
# gsp agonist: qHTS for Agonist of gsp, the Etiologic Mutation Responsible for Fibrous Dysplasia/McCune-Albright Syndrome: qHTS. gsp mutant cells, cAMP HTRF, 30 min; control for the full effect not named in the record. Potency, µM (doses to about 76.9 µM), for the others: at the top dose activation (cAMP increase), actives largely listed as activators. hit rate 0.13% among 340,000; active = well fitted activation curve with a large enough effect; inconclusive = small, poorly fitted or top-dose-only effect, or another doubt; inactive = no such curve, though single readings can be large or run the other way; cell line not stated here;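 also: phosphodiesterase inhibitor Ro 20-1724 added with compounds to block cAMP breakdown; potency is read from the fitted curve at half-maximal effect; nearly all actives have a fitted effect of over 60% in size; about a fifth of the inactives were tested at one dose only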
#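 Cells in DMEM/10% FBS with G418 were pretreated with compounds in DMSO plus […] (300 uM stock) for 30 min at 37C. cAMP was measured by HTRF (cAMP-d2 plus anti-cAMP antibody-K) after 30 min at room temperature.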
# D2 ag: Beta-Arrestin HTS for Positive Allosteric Modulators of the Human D2 Dopamine Receptor: Agonists | hit rate 0.084% among 360,000 | DiscoveRx PathHunter D2 beta-arrestin, luminescence, 90 min; 100% = 57 uM dopamine signal | activation, % (concentration not given with the values); in the data active = activation above about 40%; inconclusive = about 15% to 40%; inactive = below about 15%; also: compound concentration not given in the record; the text of the record calls up to 30% inactive
#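 DiscoveRx PathHunter D2 beta-arrestin cells (2,100/well) attached overnight, then compound-stimulated 90 min at 37 C in HBSS/10 mM HEPES/0.1% Tween-20 buffer; beta-galactosidase complementation read by luminescence after 1 h at ambient temperature. Dopamine 57 uM final (EC100) as control.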
# CtBP-E1A inh: qHTS Assay for Inhibitors of the CtBP/E1A Interaction; hit rate 0.49% among 340,000; AlphaScreen GST-E1A/His-CtBP binding, 1536-well; hits give low values; control for the full effect not named in the record; activity change, % (test concentration not listed); CtBP / adenovirus E1A interaction (AlphaScreen); in the data active means activity change below about -65%; inconclusive means about -30% to -65%; inactive means above about -30%; also: % is scaled to controls: 0 for no effect and ±100 for the full control effect; compound concentration not given in the record
#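 Protein mix (5X: 125 nM each GST-E1A, His-CtBP) was incubated with pinned compound 2 h at 37 deg C in dark, in 50 mM Tris pH 8.0 buffer with 300 mM NaCl. Glutathione donor and nickel acceptor beads followed; AlphaScreen signal read after 1 h.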
# The depositor's hits bear a star; ? = inconclusive; · = not tested or not shown; [ ] = dose if it differs, or a comment.
SMILES,D2 potentiator,gsp antag,Six1-Eya2 inh,gsp agonist,D2 ag,CtBP-E1A inh
Cc1cn(CC(=O)NCCNc2ccc([N+](=O)[O-])cn2)c(=O)[nH]c1=O,·,11%,4,·,-0.9,8
COc1ccccc1OCC(=O)NC1CC(C)(C)NC(C)(C)C1,-5,-10%,1,8%[15.4 µM],-4.3,0
CN1CCN(c2ccc(S(=O)(=O)N3CCOCC3)cc2NC(=O)Cc2ccccc2F)CC1,0,5%,0,15%,-2.1,·
COc1cc(/C=N/NC(=O)c2ccoc2C)ccc1O,6,-9%,-5,-31%[inhibitor],-2.7,-6
COc1ccc(C(=O)COc2ccc3ccc(=O)oc3c2)c(OC)c1,-4,12%,-12,1%,-3.8,9
CCn1c(COC(=O)CNC(=O)c2ccccc2)nc2cc(S(=O)(=O)N(C)C)ccc21,2,8%,-4,-2%[15.4 µM],1.4,0
CCOC(=O)C1(Cc2cccc(OC)c2)CCN(Cc2ccccc2OC)CC1,-13,6%,-4,19%[15.4 µM],0.0,-4
O=C(O)COc1ccc(/C=N/NC(=O)C2CCCN2S(=O)(=O)c2ccc(Cl)cc2)cc1 (configuration not stated),-7,1%,9,-27%,-3.4,-9
CCOC(=O)NC(=O)CSc1nc2ccc([N+](=O)[O-])cc2[nH]1,-6,·,-9,-1%[15.4 µM],-4.0,0
COc1cc(C(=O)NCc2ccc(F)cc2)cc(Cl)c1OC,-12,10%,3,3%[15.4 µM],-6.9,-1
O=C(Nc1ccc(N2CCOCC2)cc1)c1ccc(S(=O)(=O)N2CCCCC2)cc1,-15,8%,-4,1%,-1.6,19
CC(C)c1cc(C(=O)OCC(=O)NC2CCS(=O)(=O)C2)c(O)c(C(C)C)c1 (configuration not stated),-19,·,2,-59%[inhibitor],-2.5,8
CCOC(=O)C1CCCN(C(=O)C2c3ccccc3Oc3ccccc32)C1 (configuration not stated),-9,-4%,0,-47%[inhibitor],0.2,-2
CCOc1ccccc1NC(=O)CN1CCN(Cc2ccccc2)CC1,-11,13%,-1,-10%,-2.0,·
COc1ccc(CN2C(=O)C(CC(=O)NCCN3CCOCC3)CC(C(=O)N(C)C)=C2C)cc1 (configuration not stated),-1,·,9,20%,2.3,6
CCCn1c(SCC(=O)c2cc(C)ccc2C)n[nH]c1=O,-15,8%,0,-2%,-1.6,4
CC(C)C(c1nnnn1Cc1ccc(F)cc1)N1CCN(c2ccc(O)cc2)CC1 (configuration not stated),15,-20%,-3,-32%[inhibitor],10,-9
Cc1cc(C(=O)COC(=O)C2=NNC(=O)CC2)c(C)n1-c1cccc(C(F)(F)F)c1,-9,-5%,-9,-1%,-0.8,-5
Cc1cc(Br)ccc1NCc1ccccn1,-11,-12%,-2,5%,-1.5,5
COc1ccc(OC)c(S(=O)(=O)NCc2nc3nc(C)cc(C)n3n2)c1,-1,9%,-5,21%,0.9,-1
Nc1nc(SCC(=O)NC2CCCc3ccccc32)n[nH]1 (configuration not stated),-1,2%,0,-4%[15.4 µM],-0.3,-1
COc1cc(Cl)cc2c1Sc1ccccc1/C2=C/CCN(C)C,-34,7%,-18,0%,-4.0,-25
CCCCS(=O)(=O)N1CCC(C(=O)Oc2ccc(Cl)cc2)CC1,-14,6%,8,-27%,-3.2,·
CN1CCN(c2nc3c(c(=O)[nH]c(=O)n3C)n2CCCSc2nnnn2-c2ccccc2)CC1,-45,-13%,-2,14%[15.4 µM],-7.3,1
COC(=O)Cn1cccc1C(=O)c1ccccc1,4,5%,1,18%,-0.3,2

# Overlap with the part before: two compounds; new compounds follow.
SMILES,D2 potentiator,gsp antag,Six1-Eya2 inh,gsp agonist,D2 ag,CtBP-E1A inh
CN1CCN(c2nc3c(c(=O)[nH]c(=O)n3C)n2CCCSc2nnnn2-c2ccccc2)CC1,-45,-13%,-2,14%[15.4 µM],-7.3,1
COC(=O)Cn1cccc1C(=O)c1ccccc1,4,5%,1,18%,-0.3,2
C/C(=N\Nc1ccc2nncn2n1)c1ccco1,-5,3%,-9,-6%[15.4 µM],-4.6,-19
O=C(Nc1ccccc1Cl)C(Cl)C(=O)c1ccccc1 (configuration not stated),-40,18%,4,-4%[15.4 µM],-15,6
Cc1ccc2c(CN3CCCCC3C)cc(=O)oc2c1C (configuration not stated),-18,-1%,13,?,-3.5,9
COc1ccc2nc(/C=N/NC(=O)CCCCCNC(=O)OC(C)(C)C)ccc2c1,2,?,?,6%[15.4 µM],3.5,-9
O=C(c1[nH]c(C(F)(F)F)nc1-c1ccccc1)N1CCN(c2c(Cl)cncc2Cl)CC1,-8,·,-11,·,-3.2,0
Cc1cc2nc3c(nc2cc1C)C(O)=C3O,-9,0%,0,4%,-3.3,-11
CCN(CC)S(=O)(=O)c1ccc(NC(=O)c2c(-c3ccccc3)noc2C)cc1,3,-18%,2,11%,-3.2,-19
Cc1ccc(C)c(C(=O)CCC(=O)N2CCN(c3ncccn3)CC2)c1,5,-1%,-6,-6%,4.9,5
O=C1c2ccccc2C(=O)N1CCc1nc(-c2ccc(Cl)cc2)no1,-20,?,16,-8%,0.0,27
CC1=CC(c2ccc(Cl)cc2)n2ncnc2N1 (configuration not stated),-28,4%,0,·,-1.0,-4
COc1ccc(C(=O)N[C@H]2CCCCNC2=O)cc1OC1CCN(C(C)C)CC1,2,12%,0,-16%,-3.4,3
Cc1cc[n+](-c2[nH]c(=O)sc2/C=N/NC(=O)c2ccccc2[O-])cc1C,10,0%,-18,4%,-0.8,-5
CCO[C@H]1OC(C(=O)NCc2ccccc2)=C[C@@H](c2cn(C(C)=O)c3ccccc23)[C@@H]1CCCO,2,-18%,-5,18%,2.2,-2
COc1ccc(NC(=O)C2(C)CCN2Cc2ccc(C(C)C)cc2)cc1OC (configuration not stated),-1,·,-8,·,3.3,-4
O=[N+]([O-])c1nn(-c2ccccc2)n(O)c1=NCCc1ccccc1,161*,-17%,?,-18%,?,?
COc1ccc(CNC(=O)N2CCN(C(=O)c3ccccc3)CC2)cc1,2,1%,9,3%[15.4 µM],-4.2,-8
O=C1CC(C(=O)NCCc2ccccc2)SC(=Nc2ccccc2)N1 (configuration not stated),-8,-22%,4,-14%[15.4 µM],-2.5,9
COc1ccccc1OCCOCCn1cnc2ccccc2c1=O,-2,-1%,3,24%,-0.6,4
COCC1CCN(C(=O)c2ccc(OC3CCN(Cc4ccccn4)CC3)cc2)C1 (configuration not stated),7,9%,3,4%,-4.2,8
COc1ccccc1C(=O)NC(CCSC)C(=O)NCc1ccccn1 (configuration not stated),0,13%,4,-3%[15.4 µM],-4.7,4
Cc1c(CC(=O)NCC(=O)O)c(=O)oc2cc3oc4c(c3cc12)CCCC4,-6,12%,-2,-14%[15.4 µM],-2.8,-10
CCOC(=O)c1ccccc1NC(=O)CSC(C)C(=O)Nc1cc(C)on1 (configuration not stated),-5,8%,1,3%[15.4 µM],0.0,4
COC(=O)c1ccc(C2C(C#N)=C(C)NC3=C2C(=O)CC(C)(C)C3)cc1 (configuration not stated),-6,-2%,5,-3%,-1.6,5
O=C(Cc1ccc(Br)cc1)NCCc1ccccc1,2,5%,-5,34%,-1.5,0
O=C1C(=O)N(CCCN2CCOCC2)C(c2ccc([N+](=O)[O-])cc2)/C1=C(/O)c1ccc2c(c1)OCO2 (configuration not stated),1,7%,-5,?,1.3,-15

# Reprinted from the results shown (14 entries):
SMILES,D2 potentiator,gsp antag,Six1-Eya2 inh,gsp agonist,D2 ag,CtBP-E1A inh
C/C(=N\Nc1ccc2nncn2n1)c1ccco1,-5,3%,-9,-6%[15.4 µM],-4.6,-19
O=C(Nc1ccccc1Cl)C(Cl)C(=O)c1ccccc1 (configuration not stated),-40,18%,4,-4%[15.4 µM],-15,6
Cc1ccc2c(CN3CCCCC3C)cc(=O)oc2c1C (configuration not stated),-18,-1%,13,?,-3.5,9
COc1ccc2nc(/C=N/NC(=O)CCCCCNC(=O)OC(C)(C)C)ccc2c1,2,?,?,6%[15.4 µM],3.5,-9
O=C(c1[nH]c(C(F)(F)F)nc1-c1ccccc1)N1CCN(c2c(Cl)cncc2Cl)CC1,-8,·,-11,·,-3.2,0
Cc1cc2nc3c(nc2cc1C)C(O)=C3O,-9,0%,0,4%,-3.3,-11
CCN(CC)S(=O)(=O)c1ccc(NC(=O)c2c(-c3ccccc3)noc2C)cc1,3,-18%,2,11%,-3.2,-19
Cc1ccc(C)c(C(=O)CCC(=O)N2CCN(c3ncccn3)CC2)c1,5,-1%,-6,-6%,4.9,5
O=C1c2ccccc2C(=O)N1CCc1nc(-c2ccc(Cl)cc2)no1,-20,?,16,-8%,0.0,27
CC1=CC(c2ccc(Cl)cc2)n2ncnc2N1 (configuration not stated),-28,4%,0,·,-1.0,-4
COc1ccc(C(=O)N[C@H]2CCCCNC2=O)cc1OC1CCN(C(C)C)CC1,2,12%,0,-16%,-3.4,3
Cc1cc[n+](-c2[nH]c(=O)sc2/C=N/NC(=O)c2ccccc2[O-])cc1C,10,0%,-18,4%,-0.8,-5
CCO[C@H]1OC(C(=O)NCc2ccccc2)=C[C@@H](c2cn(C(C)=O)c3ccccc23)[C@@H]1CCCO,2,-18%,-5,18%,2.2,-2
COc1ccc(NC(=O)C2(C)CCN2Cc2ccc(C(C)C)cc2)cc1OC (configuration not stated),-1,·,-8,·,3.3,-4

# The list goes on:
SMILES,D2 potentiator,gsp antag,Six1-Eya2 inh,gsp agonist,D2 ag,CtBP-E1A inh
C/C(=N/NC(=O)Cc1c(C)[nH][nH]c1=O)c1ccc(O)cc1,-4,2%,7,-44%[inhibitor],0.7,6
COc1ccc(CNC(=O)C(NC(C)=O)C(=O)Nc2ccc(C(C)C)cc2)cc1 (configuration not stated),2,6%,0,-29%,7.7,0
Cc1ccc(Cl)cc1N(CC(=O)N1CCCCCC1)S(C)(=O)=O,-5,-18%,2,3%,-2.4,7
OC(c1ccccn1)C(O)c1ccccn1 (configuration not stated),-9,5%,3,-29%,-6.2,-5
O=C(c1ccccc1)N1CCN(C(=O)N2CCOCC2)CC1,-12,12%,3,7%,-2.2,4
CNC(=O)CCn1nc(-c2ccc(C)cc2)c2ccccc2c1=O,-8,8%,5,-4%[15.4 µM],-1.7,1
